PINK1 modulator – PINK1 expression modulation. PINK1 immunofluorescence, high-content cytometry, 24 h. Potency, µM (top dose mostly 76.6 µM), for inactives: at the top dose activation (PINK1 increase), actives largely listed as activators. hit rate 0.2% among 410,000; active = well fitted activation curve with a large enough effect; inconclusive = small, poorly fitted or top-dose-only effect; inactive = flat fitted curve, though single readings scatter; cell line not stated here;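 note: potency is the fitted concentration of half-maximal effect; % of control where 0% means no effect; nearly all actives have a fitted effect of over 65% in size; a mitochondrial uncoupler was the plate control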
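Decision-based qHTS: stable cells, 24 h exposure to five compound concentrations, CCCP as control. Fixed cells stained for PINK1 plus nuclear, mitochondrial and cell markers, cytometer read.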
ClpP mod – qHTS Assay for Activators of ClpP; ATP-dependent Clp protease proteolytic subunit (Bacillus subtilis (strain 168)), P80244; purified B. subtilis ClpP, FRET peptide cleavage, 20 min; hit rate 1.9% among 340,000; Potency, µM (titrated, usually from 57.5 µM), without a hit: at the highest dose activity change, negative = active; active = well fitted falling curve with a large enough effect; inconclusive = small, poorly fitted or top-dose-only effect; inactive = no such curve, though single readings can be large or run the other way; note: potency is the fitted concentration of half-maximal effect; the source files actives as falling curves though it sought activators and does not explain the sign; nearly all actives have a fitted effect of over 65% in size; many hits overshoot -100%
Target sequence (P80244 whole entry, looked up): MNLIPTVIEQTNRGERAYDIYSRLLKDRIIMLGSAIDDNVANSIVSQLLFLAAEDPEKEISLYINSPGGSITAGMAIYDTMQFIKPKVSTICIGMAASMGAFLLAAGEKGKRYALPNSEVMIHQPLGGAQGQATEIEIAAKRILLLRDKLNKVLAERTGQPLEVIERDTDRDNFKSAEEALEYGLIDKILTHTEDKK
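Purified B. subtilis ClpP, 10 microg/mL final in Tris/HCl pH8 with KCl, BSA, glycerol and Tween-20, cleaved an Abz/nitrotyrosine-quenched decapeptide. Fluorescence (ex 320, em 430) was read at 0 and 20 min at room temperature. Delta was normalized to 5.8 microM ADEP and DMSO/no-enzyme controls.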
Sfp PPTase inh – blocks B. subtilis Sfp PPTase activity | Q9F4F7 | Potency, µM, without a hit: max response, negative = inhibition, most hits filed as inhibitors | Biochemical Sfp PPTase activity, qHTS | AID 1490 | hit rate 3.5% among 310,000; active = well fitted inhibition curve with a large enough effect; inconclusive = small, poorly fitted or top-dose-only effect, or another doubt; inactive = no such curve, though single readings can be large or run the other way;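 note: the enzyme is Sfp with the accession as filed and its product quenches rhodamine fluorescence; potency is the fitted concentration of half-maximal effect; 0% = enzyme reaction without inhibitor and -100% = no enzyme wells; top concentration of the series not given in the record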
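With Hepes-Na pH 7.6 buffer containing 10 mM MgCl2, Sfp (15 nM) modified BHQ-2-YbbR (12.5 uM) using rhodamine-CoA (5 uM). Two reads 30 minutes apart at 525/598 nm yielded each well's rate.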
TRPML1 agonist – agonists of human TRPML1 channel; TRPML1-expressing cells, Ca2+ dye fluorescence, FDSS; host cell line not named in the record; reference of the full effect not given here; Q9GZU1; activation, % (no concentration beside the values); hit rate 0.12% among 410,000; in the data active = activation above about 50%; inconclusive = about 30% to 50%; inactive = below about 30%; note: 0% is about no effect; the text of the record puts the active cut at 80%
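In this qHTS format, compounds were pin-transferred onto Ca8-dye-loaded TRPML1-DL cells induced with Tet overnight, and intracellular Ca2+ fluorescence was recorded kinetically for 110 s after a 10 s baseline. A subsequent 4uM final 54-4 (EC80) addition followed by a second 110 s read served as the antagonist phase.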
TRPML1 inh – blocks the human TRPML1 channel. TRPML1-inducible cells, Ca2+ dye fluorescence, FDSS; stronger effect = lower value; inhibition of EC80 agonist-evoked calcium signal. activity change, negative = inhibition, % (test concentration not listed). hit rate 0.02% among 390,000. Q9GZU1; in the data active means activity change below about -50%; inconclusive means about -30% to -50%; inactive means above about -30%;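 note: stimulus is agonist 54-4 at its EC80 concentration; % is set by controls: 0 for no effect and ±100 for the full control effect; compound concentration not given in the record; the text of the record puts the active cut at -80%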
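Calcium fluorescence in TRPML1-DL cells induced overnight with Tet: a 110 s read after compound pin addition, then a 110 s antagonist read after challenge with 54-4 at 4 uM final (EC80).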
TRPV1 PAM – human TRPV1 potentiation; Q8NER1; TRPV1-expressing cells, Fluo-8 calcium influx, capsaicin EC20 potentiation; host cell line not named in the record; control for the full effect not named in the record; potentiation, % at 8.33 µM; hit rate 0.02% among 320,000; AID 540277; active means potentiation above 80%; inconclusive means 30% to 80%; inactive means below 30%; note: 0% is about no effect
Target sequence (Q8NER1 whole entry, looked up): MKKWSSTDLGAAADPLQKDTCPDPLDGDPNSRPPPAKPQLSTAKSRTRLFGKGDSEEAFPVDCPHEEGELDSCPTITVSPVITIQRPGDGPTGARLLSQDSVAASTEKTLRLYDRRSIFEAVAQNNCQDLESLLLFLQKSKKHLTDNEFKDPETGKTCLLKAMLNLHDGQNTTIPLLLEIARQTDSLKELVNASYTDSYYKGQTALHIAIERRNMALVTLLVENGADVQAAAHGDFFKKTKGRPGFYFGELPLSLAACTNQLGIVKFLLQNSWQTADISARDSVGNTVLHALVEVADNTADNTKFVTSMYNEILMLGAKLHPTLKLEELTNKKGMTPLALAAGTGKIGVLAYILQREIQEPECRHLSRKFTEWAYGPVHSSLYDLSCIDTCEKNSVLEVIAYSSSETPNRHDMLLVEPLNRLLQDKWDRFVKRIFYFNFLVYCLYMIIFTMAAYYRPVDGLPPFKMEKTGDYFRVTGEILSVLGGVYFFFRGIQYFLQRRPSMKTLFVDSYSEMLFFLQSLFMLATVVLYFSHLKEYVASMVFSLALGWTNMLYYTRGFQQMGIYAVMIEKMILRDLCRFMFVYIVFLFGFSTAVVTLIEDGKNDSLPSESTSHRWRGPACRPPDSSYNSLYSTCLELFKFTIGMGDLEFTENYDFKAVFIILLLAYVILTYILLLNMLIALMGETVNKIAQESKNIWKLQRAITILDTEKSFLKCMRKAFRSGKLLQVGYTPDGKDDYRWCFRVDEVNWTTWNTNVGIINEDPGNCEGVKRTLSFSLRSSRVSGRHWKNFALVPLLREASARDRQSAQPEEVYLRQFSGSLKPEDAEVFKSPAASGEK
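TRPV1-expressing cells were cultured overnight at 35.5C and loaded with Fluo-8 calcium dye for 40 to 90 min at room temperature. After a 10 s baseline, compound was added and calcium influx was read kinetically for 3 min (ex 480/em 520 nm).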
Menin-MLL FL inh – menin-MLL binding inhibition, fluorescein peptide | Fluorescence polarization, fluorescein-MLL peptide displacement from menin | FP activity change, % at 61.4 µM | 290,000 tested, under 10 active; inconclusive = falling polarisation curve, or a change in total fluorescence; inactive = total fluorescence flat and polarisation flat or rising; no compound was filed as active; the % refers to the polarisation; negative = inhibition;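 note: % of control where 0% means no effect; inhibitors lower the polarisation; unlabelled MLL peptide was the positive control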
* = called active by the depositor; ? = inconclusive; nt = no result given; & = joins results of further samples; [ ] = another dose, or the depositor's remark.

The opening 2 entries, ahead of the listing:
SMILES | PINK1 modulator | ClpP mod | Sfp PPTase inh | TRPML1 agonist | TRPML1 inh | TRPV1 PAM | Menin-MLL FL inh
C/C(=N\Nc1ncc(Br)cn1)c1cccc([N+](=O)[O-])c1 | -0.1% | 1.2% | 4% | 0.1 | 1 | 2 | -2.9
CCN(CCCNC(=O)C1c2ccccc2C(=O)N(CCOC)C1c1ccc(F)cc1)Cc1ccccc1 (stereo not given) | -1.7% | -0.1% | 14% | 0.5 | 0 | 4 | -0.9

Results, repeating the preview:
SMILES | PINK1 modulator | ClpP mod | Sfp PPTase inh | TRPML1 agonist | TRPML1 inh | TRPV1 PAM | Menin-MLL FL inh
C/C(=N\Nc1ncc(Br)cn1)c1cccc([N+](=O)[O-])c1 | -0.1% | 1.2% | 4% | 0.1 | 1 | 2 | -2.9
CCN(CCCNC(=O)C1c2ccccc2C(=O)N(CCOC)C1c1ccc(F)cc1)Cc1ccccc1 (stereo not given) | -1.7% | -0.1% | 14% | 0.5 | 0 | 4 | -0.9
Cc1c(C(=O)O)oc2ccc(S(=O)(=O)NCCC3=CCCCC3)cc12 | -5.2%[38.3 µM] | 2.4% | 5% | 0.0 | -13 | 2 | -1.3
O=C(CC[C@H]1O[C@@H](n2cnc3c(NC(=O)c4ccccc4)ncnc32)[C@H](O)[C@@H]1O)NCC(F)(F)F | 1.3% | ? | nt | 0.4 | nt | nt | nt
CCCCC(CC)CNC(=O)c1ccc2c(=O)n(CCOC)c(=O)[nH]c2c1 (stereo not given) | 1.6% | -17% | nt | 1.2 | -18 | 7 | nt
N#CCN(C(=O)COC(=O)CCCNC(=O)c1ccc(Cl)cc1)c1ccccc1 | -0.8% | -9.0% | nt | 0.1 | 11 | -1 | nt
COc1ccccc1NC(=O)c1ccc([N+](=O)[O-])cc1[N+](=O)[O-] | 0.1% | nt | 16% | 1.3 | 1 | 10 | -1.7
CCOC(=O)C1CCN(Cc2cc(=O)oc3c(C)c(C)ccc23)CC1 | -0.6% | -2.9% | -8% | -0.1 | -23 | -19 | 0.1
COc1ccc(COC(=O)C2CCN(S(=O)(=O)c3ccc(OC)c(OC)c3)CC2)cc1 | 0.3% | -2.0% | nt | 0.9 | -16 | -6 | nt
CCOc1ccccc1C1CC(c2ccccc2)Nc2nc(N)nn21 (stereo not given) | 0.9% | -7.2% | -14% | 1.4 | 6 | nt | 2.4
COc1ccccc1N1C(=O)C2C3C=CC(CC3)C2C1=O (stereo not given) | 1.6% | nt | 19% | -0.2 | -11 | -9 | -3.1
O=C(CSc1nnc2scc(-c3ccccc3)n12)N1CCCc2ccccc21 | 0.6%[38.3 µM] | 0.5% | 13% | 4.4 | -4 | 0 | 7.5
Cc1ccc(C)c(N(CC(=O)N2CCc3ccccc3C2)S(C)(=O)=O)c1 | 1.4% | 0.2% | nt | -0.5 | -14 | nt | nt
COC(=O)COc1coc(CN2CCN(c3cccc(Cl)c3)CC2)cc1=O | -1.3% | nt | 13% | -0.2 | -7 | 21 | nt
O=c1[nH]cnc2sc3c(c12)CN(Cc1ccccc1)CC3 | 0.2% | -1.6% | 5% | -1.1 | -1 | -5 | -15
CCCCNC(=S)NNC(=O)c1csc2c1CCC(C)C2 (stereo not given) | 1.3%[38.3 µM] | 1.1% | 19% | 4.7 | -6 | -11 | 1.6
O=C(NCc1ccccc1F)C(=O)NCC(c1ccco1)S(=O)(=O)c1ccccc1 (stereo not given) | -0.8% | 0.3% | nt | 0.9 | 13 | nt | nt
Cc1cnc(C(=O)Nc2ccccc2-n2cccc2)cn1 | 0.6% | -14% | 45µM* | -1.1 | 2 | 25 | 4.0
COc1ccc(-c2nc3ccccc3c(=O)n2CCOc2cc(C)ccc2C)cc1 | 8.7% | 4.5% | 5% | 0.2 | 2 | 4 | 9.8
Cc1occc1-c1nnc(SCC(=O)c2ccc3c(c2)OCCO3)n1CC1CCCO1 (stereo not given) | 2.4% | 0.4% | -2% | 1.4 | -1 | -5 | 4.0
CC(=O)c1ccc(NC(=O)CN2CCN(CC(=O)Nc3ccc(C(C)=O)cc3)CC2)cc1 | 0.1% | nt | 10% | 0.4 | 5 | -15 | -3.6
CCCCNC(=O)COC(=O)CCC(=O)c1cccs1 | 0.6% | nt | -4% | -0.1 | 10 | ? | -3.8
Cc1ccccc1-n1nnnc1SCc1csc(-c2ccccc2)n1 | -1.3% | -5.5% | -2% | 2.6 | 38 | 6 | 3.9
Cc1ccc(C)c(NC(=O)C[n+]2ccccc2)c1 | 1.0% | -1.7% | 5% | 0.5 | 0 | -11 | 0.1
Cc1sc2nc(CSCC(=O)Nc3c(F)cccc3F)[nH]c(=O)c2c1C | 26% | -0.6% | nt | -1.2 | -6 | 4 | nt
CCOC(=O)Cn1c(=O)oc2cc(S(=O)(=O)N3CCN(C(=O)OCC)CC3)ccc21 | -0.6% | -2.3% | 3% | 0.7 | 3 | 1 | 1.0
COc1ccccc1OCCNc1nc2c(c(=O)n(C)c(=O)n2C)n1C | -2.5% | 0.3% | 16% | 4.0 | -24 | 2 | 1.1
NC(=O)C1C(=O)c2ccccc2C1(C[N+](=O)[O-])c1ccccc1 (stereo not given) | 1.8% | nt | nt | -0.4 | -8 | nt | nt
CCc1cccc(CC)c1NC(=O)C(CC)Sc1nc2ccncc2[nH]1 (stereo not given) | 0.9% | -0.3% | 8% | 1.0 | -12 | 30 | -0.8
Clc1cccc(NCc2nnc3n2CCCCC3)c1 | -0.2% | nt | 12% | 0.0 | 4 | 15 | -0.9
CSCCC(NS(=O)(=O)c1c(Cl)cccc1Cl)C(=O)O (stereo not given) | -0.5% | nt | 17% | 0.3 | -4 | -11 | 0.6
O=C(Nc1cccc(S(=O)(=O)N2CCOCC2)c1)C1CC(=O)N(c2ccc3c(c2)OCCO3)C1 (stereo not given) | 2.8% | -0.1% | nt | -0.3 | 0 | 4 | nt
COCCn1c(N)c(N(Cc2ccccc2)C(=O)C2CCCC2)c(=O)[nH]c1=O | -0.7% | 0.3% | 11% | 0.1 | -16 | 11 | -5.9
Cc1c(C(=O)NCc2cccnc2)oc2ccc(S(=O)(=O)N3CCCCC3)cc12 | -0.2%[38.3 µM] | -1.8% | -20% | 3.0 | 9 | -4 | 0.5
COC(=O)c1cn(C)c2ccc(S(=O)(=O)N3CCOCC3)cc2c1=O | 1.3% | 1.4% | 17% | 1.7 | 34 | -6 | 0.0
Cn1ccc2c(N3CCCCCC3)cc3c(c21)C1CCC3O1 (stereo not given) | 14% | -13% | nt | -0.9 | nt | nt | nt
COc1ccc(S(N)(=O)=O)cc1C(=O)OCCCOc1ccc(F)cc1 | 0.9% | 0.8% | 0% | -1.6 | -5 | -1 | -13
Cc1ccc(-c2nc(C)c(CCNC(=O)c3cccs3)s2)cc1 | -0.6% | 3.6% | nt | 3.3 | 0 | nt | nt
CCOc1cc(S(=O)(=O)NCc2ccc(OC)cc2)c(OCC)cc1-n1cnnn1 | 5.6µM* | 22µM* | 16% | -0.3 | -11 | -1 | 3.5
COc1ccc(C(=O)NNC(=O)c2ccc(S(=O)(=O)N3CCCCC3)cc2)cc1 | 0.8% | nt | 0% | 2.8 | 5 | 2 | -4.8
COC(=O)c1ccc(CSc2nc3ccc(C)cc3[nH]2)o1 | 4.1% | -0.7% | 17% | 0.3 | 4 | -3 | 2.3
CC(NS(=O)(=O)c1cccc(C(=O)NCc2ccncc2)c1)c1ccccc1 (stereo not given) | 1.0% | 0.5% | nt | -0.9 | -2 | 8 | nt
CN1CCN(c2ccc(Cl)cc2NS(=O)(=O)c2ccccc2Cl)CC1 | -3.3% | 0.2% | -10% | 2.1 | 11 | -3 | 2.0
CCn1nnc2cc(C(=O)Nc3cccc(Cl)c3)ccc21 | 0.9% | 2.0% | nt | 0.8 | -15 | nt | nt
CCOc1ccc(NC(=O)CCc2c(C)nc3nc(C)nn3c2C)cc1 | 0.6% | -1.4% | nt | -0.3 | 9 | nt | nt
Cc1ccnc(Nc2cccnc2)n1 | -0.4% | -2.6% | nt | -0.7 | nt | nt | nt
O=C(c1ccc2c(c1)N(Cc1ccc(Cl)cc1)C(=O)c1ccccc1S2(=O)=O)N1CCCC1 | 0.8% | -8.8% | nt | -0.9 | -11 | nt | nt
C/C(CC(=O)Nc1ccc(Cl)c(Cl)c1)=N\NC(=O)Cc1ccccc1 | 17% | 1.1% | 14% | 1.0 | -5 | 1 | 5.0
Cc1ccc(C)c(NC(=O)Cn2c(=O)n(Cc3cccs3)c(=O)c3cccnc32)c1 | 3.8% | ? | nt | 0.2 | -1 | nt | nt
Cn1c2ccccc2c2cnn(CC(=O)NCCCN3CCN(c4ccccc4F)CC3)c(=O)c21 | 6.4%&0.8% | ? | 9% | -0.5&1.4 | -11&-17 | 10 | nt
CC(=O)c1ccc(NC(=S)N2C(C)CCCC2C)cc1 (stereo not given) | nt | nt | 45µM* | nt | nt | 4 | 1.0
Cc1cc(NC(=O)CSc2ccc(-c3ccc4c(c3)OCO4)nn2)no1 | nt | nt | -1% | nt | nt | -10 | 9.5
CN(C(=O)c1cccc(NC(=O)Cc2ccc(NC(=O)C3CCN(C(=O)C4CCCC4)CC3)cc2)c1)C1CCCCC1 | 2.6% | 1.0% | nt | -1.3 | -1 | nt | nt
CC(=O)Nc1ccc(OC(=O)c2ccc(Cl)cc2)cc1 | 1.7% | 1.1% | 12% | -0.3 | -7 | -8 | 0.4
COc1cc(NC(=O)CC2C(=O)OCCN2Cc2ccccc2)cc(OC)c1 (stereo not given) | 2.2% | -0.8% | nt | 1.5 | -9 | nt | nt
COCCOC(=O)c1c(C)n(C)c2ccc(OC(=O)c3cccs3)cc12 | 3.2%[38.3 µM] | 3.4% | 18% | 0.7 | -3 | -3 | 2.6
CNC(=O)c1ccc(Nc2nnc(-c3ccc(C)c(S(=O)(=O)N4CCCCC4)c3)c3ccccc23)cc1 | 2.0% | ? | nt | -0.4 | -2 | nt | nt
COC(=O)c1ccc(N2CCN(c3ccccc3)CC2)nc1 | 5.5% | ? | -3% | 2.2 | -22 | -6 | 4.2

Assay outcomes deposited in PubChem by National Center for Advancing Translational Sciences (NCATS).
